High-throughput results as filed in PubChem BioAssay.
CSC inhib = blocks cancer stem cells. inhibition, % at 7.5 µM. AID 2717. cancer stem cell-like cells viability, luminescence. 300,000 compounds, 1.1% hits;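 active = mean at 75% or more and at least half the replicates too; inconclusive = mean and replicates disagree; tested in HMLE shEcad cells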;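 also: 0% = median of negative and 100% = median of positive control wells; the first replicate is given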
Rce1 inhib = inhibitors of yeast Ras-converting enzyme. Q03530. yeast membranes, quenched prenylated peptide cleavage fluorescence. calls only. AID 2563. 290,000 compounds, 0.27% hits;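 active = fall in fluorescence gain of 50% or more versus controls, with final raw signal at or below 3038400; inconclusive = same 50% fall but final raw signal above 3038400; inactive = fall in fluorescence gain under 50%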;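 also: plate controls were neutral control wells for no effect and wells lacking membranes for full effect; tested at 10 µM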
Target sequence (Q03530 whole entry, looked up): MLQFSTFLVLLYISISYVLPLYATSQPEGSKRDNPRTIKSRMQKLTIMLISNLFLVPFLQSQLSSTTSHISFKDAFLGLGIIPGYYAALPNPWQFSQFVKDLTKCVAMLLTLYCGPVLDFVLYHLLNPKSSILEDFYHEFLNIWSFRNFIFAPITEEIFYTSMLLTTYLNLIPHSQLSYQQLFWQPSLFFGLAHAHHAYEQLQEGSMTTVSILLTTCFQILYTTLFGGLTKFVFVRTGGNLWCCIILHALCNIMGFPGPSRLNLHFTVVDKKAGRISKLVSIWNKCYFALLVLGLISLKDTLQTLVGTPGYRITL
UUG fidelity = yeast start codon fidelity modulation | 350,000 compounds, 0.13% hits | S. cerevisiae UUG-firefly luciferase reporter, luminescence/redox ratio | AID 602363 | activity score, % at 18.7 µM;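 active = replicate mean at a twofold rise or more, about +100% in these data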;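 also: firefly luciferase made from a UUG start codon reports start codon fidelity; reporter light over untreated wells divided by growth signal over untreated wells; some hits fall short of that in this replicate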
HIV Env fusion = inhibitors of HIV Env-mediated cell fusion. 360,000 compounds, 1.1% hits. HeLa-JRFL Env/CEM21 cell fusion, luciferase. inhibition, % at 12.3 µM;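 active = mean replicate inhibition score of at least 50 and every replicate individually at or above 50; inconclusive = only one of the two criteria met; inactive = mean below 50 and not all replicates reaching 50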;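 also: 0% = plate neutral controls and 100% = maraviroc near 300 nM; one replicate is shown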
MT1-MMP act inh = MT1-MMP (human) activation inhibition. P50281. HT1080 RFP-PRO-GFP cells, GFP/RFP ratio fluorescence, overnight; percent of plate control window, DMSO zero. GFP/RFP ratio change, % at 20 µM. 360,000 compounds, 0.061% hits;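 active = GFP/RFP ratio change of at least 30% with cell ATP level not reduced by more than half and red fluorescence within 50% of control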; also: strong numbers were not always called active
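Assay system: HT1080 cells carrying an RFP-PRO-GFP reporter | Dosing: Single dose of 20 µM compound, 1% DMSO final | Incubation: Cells overnight before dosing, compound overnight, 37 °C, 5% CO2 | Evaluation: GFP/RFP fluorescence ratio | Control set: DMSO and RFP-L50D-GFP cell wells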
PABP FP inh = blocks human PABP binding to poly(A) RNA | inhibition, % at 35 µM | fluorescence polarization | AID 2014 | 290,000 compounds, 1% hits;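 active = 50% or more with normal probe brightness, or confirmed in later tests; inconclusive = above 50% with abnormal brightness, or retests that disagree; inactive = below 50% or failed in later tests; about a fifth of its hits are not listed in these tables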;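 also: calls also rest on retests at 20 µM and on dose response follow-up; controls were probe without protein and protein plus probe with vehicle; some compounds called inactive have numbers as strong as hits; many hits fall short of the cut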
Target sequence (P11940 whole entry, looked up): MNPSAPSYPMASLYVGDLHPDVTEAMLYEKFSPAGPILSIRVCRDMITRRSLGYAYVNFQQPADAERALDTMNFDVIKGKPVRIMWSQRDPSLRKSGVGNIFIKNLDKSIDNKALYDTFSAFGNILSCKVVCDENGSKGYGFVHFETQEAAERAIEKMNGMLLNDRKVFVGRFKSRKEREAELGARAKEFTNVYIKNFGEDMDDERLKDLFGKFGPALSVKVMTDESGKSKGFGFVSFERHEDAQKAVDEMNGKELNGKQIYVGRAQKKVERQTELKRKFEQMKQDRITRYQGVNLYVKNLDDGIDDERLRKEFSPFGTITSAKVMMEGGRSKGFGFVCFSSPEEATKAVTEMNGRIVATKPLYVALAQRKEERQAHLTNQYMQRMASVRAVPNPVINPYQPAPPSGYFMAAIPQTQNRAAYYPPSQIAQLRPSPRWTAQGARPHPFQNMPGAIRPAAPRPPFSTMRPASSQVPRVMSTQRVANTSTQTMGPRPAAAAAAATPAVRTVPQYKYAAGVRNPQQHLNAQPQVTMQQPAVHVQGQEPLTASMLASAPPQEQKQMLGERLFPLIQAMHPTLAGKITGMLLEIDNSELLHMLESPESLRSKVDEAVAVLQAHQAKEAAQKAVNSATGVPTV
eIF4H inh = inhibitors of RNA binding by human eIF4H; inhibition, % at 35 µM; 290,000 compounds, 0.94% hits; eIF4H fluorescence polarization binding assay; Q15056;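 active = 50% or more with normal probe brightness, or confirmed in later tests; inconclusive = above 50% with abnormal brightness, or retests that disagree; inactive = below 50% or failed in later tests; about a fifth of its hits are not listed in these tables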;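 also: calls also rest on retests at 20 µM and on dose response follow-up; 0% = protein and probe with vehicle and 100% = probe without protein; strong numbers were not always called active; many hits fall short of the cut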
eIF4H inh retest = second read-out of eIF4H inh, no call of its own (marks repeat the call); inhibition, %; compound at 20 µM; confirmation average;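 mean of two retest wells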
PABP FP inh retest = recorded beside PABP FP inh, whose call it bears; inhibition, %; compound at 20 µM; confirmation repeats;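 mean of two retest wells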
MT1-MMP act inh RFP = second read-out of MT1-MMP act inh, no call of its own (marks repeat the call); RFP signal change, %; measured here: RFP expression control read;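 0 = vehicle wells; hits needed this value within 50% of zero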
The depositor's hits bear a star; i = inactive; ? = inconclusive; nt = not tested or not shown.

SMILES	CSC inhib	Rce1 inhib	UUG fidelity	HIV Env fusion	MT1-MMP act inh	MT1-MMP act inh RFP	PABP FP inh	eIF4H inh	others
Cc1cc(CNC(=O)c2cc(COc3ccc(F)c(F)c3)on2)nn1C	-3	i	6	-161	0	-1	-2	0
CC(C)(C)C1C/C(=C/c2ccco2)C(=O)/C(=C/c2ccco2)C1 (centres undefined)	46	nt	-1	19	-8	23	-1.8*	72*	eIF4H inh retest=83*;PABP FP inh retest=53*
CCS(=O)(=O)c1nc(NC(C)=O)n[nH]1	2	i	-11	nt	-4	5	-2	-6
c1ccc(Cn2nnnc2C(c2ccccn2)N2CCN(c3ccccc3)CC2)cc1 (centres undefined)	-10	i	-7	nt	4	-7	-10	7
C/C(Nc1ccc(F)cc1)=C(/C#N)C(N)=O	-9	i	2	-24	4	7	-8	-2
O=[N+]([O-])c1cccc(-c2nc(-c3ccccn3)no2)c1	2	i	nt	-31	0	-1	2	-12
Cc1ccc(-c2csc(N(Cc3ccccc3)C(=O)COc3ccccc3)n2)cc1	-8	i	-7	-46	0	2	12	2
O=C(CCCNS(=O)(=O)c1ccc(Br)cc1)N1CC[C@@]2(O)CCCC[C@H]2C1	-12	nt	-9	nt	5	-2	-5	-2
CC1CCCN(S(=O)(=O)c2cnc[nH]2)C1 (centres undefined)	0	i	-10	-8	-1	5	-8	-16
Cc1ccc2c(c1)N(C(=O)CCC(=O)N1CCN(c3ccccn3)CC1)CC(C)O2 (centres undefined)	-7	i	8	nt	2	0	-10	0
CN(CC(=O)Nc1cccc(F)c1)C(=O)c1cc(-c2cccs2)nn1-c1ccccc1	0	i	-9	24	6	-3	nt	nt
Cc1cc(N2CCCC2)ccc1NC(=O)COc1cccc(C(F)(F)F)c1	nt	i	-36	59*	-8	-26	-5	42
CC(C)(C)OC(=O)N1CCCC(C(=O)Nc2cccc(C(=O)NCc3ccccc3)c2)C1 (centres undefined)	nt	nt	1	-18	-1	-7	nt	nt
N#C/C(=C(/O)Cc1cccc2ccccc12)c1nc2ccccc2s1	69	i	nt	-20	-2	-3	7	-7
CC(=O)Nc1ccc(CN(C)c2c(C)nc3ccc(C(=O)Nc4ccc(Cl)c(Cl)c4)cn23)cc1	nt	nt	-13	-22	9	-2	nt	nt
C=CCNCc1cc(=O)n2c(-c3ccccc3)csc2n1	6	i	-10	-1	1	4	26	32
CCOc1cccc(NC(=O)Cc2cccs2)c1	nt	i	-12	nt	2	5	3	-8
Cc1cc2c3c(c1C)C1(C(=O)N3C(C)(C)CC2C)C(C#N)=C(N)Oc2cc(O)ccc21 (centres undefined)	30	i	2	62*	-3	-9	16	12
CCCCn1c(N)c(N(CC(C)C)C(=O)c2ccc(OCC3CCCO3)cc2)c(=O)[nH]c1=O (centres undefined)	-2	i	-9	-28	2	3	nt	nt
COc1cc(/C=C2/SC(=S)N(CC3CCCO3)C2=O)ccc1O (centres undefined)	-1	i	-14	-5	-31	90	2	-6
COc1cccc(CNC(=O)CN(C)S(=O)(=O)c2cccc3cccnc23)c1	-18	i	-12	3	3	1	3	-3
COCCCNC(=S)N1CCN(c2nc(-c3cccc(OC)c3)cs2)CC1	-5	i	-8	36	1	-9	-6	9
CNc1nc(-c2c(C)[nH]c3ccc(OC)cc23)cs1	nt	i	2	-9	24	17	6	-9
COc1cc([N+](=O)[O-])cc2sc(NC(=O)C(C)(C)C)nc12	1	i	-12	1	-3	-2	-10	11
CCCCn1c(N)c(N(CC(C)C)C(=O)CN(C)S(=O)(=O)c2ccc(C)cc2)c(=O)[nH]c1=O	nt	i	nt	-101	-3	0	nt	nt

Other records:
SMILES	CSC inhib	Rce1 inhib	UUG fidelity	HIV Env fusion	MT1-MMP act inh	MT1-MMP act inh RFP	PABP FP inh	eIF4H inh	others
O=C(O)CCc1ccc(-c2ccccc2)n1NC(=O)c1ccco1	nt	i	-9	nt	2	0	0	-8
CCc1ccc2nc(NC(=O)CN3C(=O)NC4(CCCC4)C3=O)sc2c1	-11	nt	5	-46	-1	-3	nt	nt
CCCN(CCC)C(=O)C1CC(=O)OC12CCOC(C)(C)C2 (centres undefined)	-7	i	-18	-5	1	1	-5	-11
C/C(=N\OCC(=O)O)c1ccc(Cl)cc1	-15	i	nt	1	-1	2	0	6
O=C(N=Nc1c(O)n(C2OC(=O)c3ccccc32)c2ccccc12)c1ccco1 (centres undefined)	-20	i	nt	nt	nt	nt	-2	-10
Cc1[nH]c2ccc(C(=O)OCC(=O)Nc3cccc(S(N)(=O)=O)c3)cc2c1C	-7	nt	-3	12	0	-3	nt	nt
O=C(Oc1ccc(-c2cnc3ccccc3n2)cc1)c1ccco1	-3	i	-41	i	0	1	-1	6
Cc1cc(C)n(-c2nc3c(c(=O)[nH]c(=O)n3C)n2Cc2ccc(F)cc2)n1	4	i	-9	nt	-6	-1	9	-1
CCN1C(=O)c2cccc3c(S(=O)(=O)N(C(C)=O)c4ccc(OC(C)=O)cc4)ccc1c23	7	nt	12	nt	5	-2	nt	nt
CNC(=O)c1cccc2cccc(Sc3ccccc3C(=O)O)c12	-5	i	nt	3	4	2	11	-3
c1ccc(C2CCC(N3CCN(c4ccccc4)CC3)CC2)cc1 (centres undefined)	1	i	-10	nt	-3	0	-3	3
O=C(CN1C(=O)COc2ccccc21)NCc1ccccn1	14	i	-29	8	2	4	-5	3
COc1ccc(/C=N/Nc2nc(C(=O)O)cs2)cc1	-6	i	-51	-20	-4	0	9	32
COC(=O)c1ccccc1NC(=O)CSc1n[nH]c(-c2ccco2)n1	-9	i	-10	-2	-2	-3	3	-1
CCOC(=O)Cc1csc(NC(=O)Cc2ccc(Cl)cc2)n1	-2	i	nt	-2	1	-12	-7	-6
CC(=O)c1ccc(N2CCN(C(=O)C3CCCN(S(=O)(=O)c4cnc[nH]4)C3)CC2)cc1 (centres undefined)	-17	i	-21	-20	1	-1	-7	6
CCCC[C@H](CN[C@@H](CNC)[C@H](C)CC)NCCC12CCC(CC1)C2	10	i	-18	5	12	2	-6	0
CCN(CC)S(=O)(=O)c1ccc(N2CCCC2)c(C(=O)Nc2ccc(OC)c(Cl)c2)c1	-13	i	-7	-18	3	4	19	-1
O=C(NNc1ncnc2c1cnn2-c1ccccc1)c1cccs1	3	i	nt	7	3	3	-6	4
CCOc1ccc2[nH]cc(C(=O)NCCCN3CCOCC3)c(=O)c2c1	-14	i	-9	-1	5	2	-6	-1
Cc1onc(-c2ccccc2)c1C(=O)N1CCN(Cc2ccc3c(c2)OCO3)CC1	3	nt	-2	18	-2	-3	2	2
Cc1ccc(S(=O)(=O)N2CCCCC2)cc1C(=O)NC1CCCCC1	10	i	0	-1	4	1	2	-7
CCCc1cc(-c2ccc(O)c(OCC)c2)c(C#N)c(N)n1	-6	i	-9	-43	nt	nt	-2	-9
CC1CN(S(=O)(=O)c2ccc(F)cc2)C(C)N1C(=O)N1CCOCC1 (centres undefined)	-35	i	-6	-26	2	5	6	-9
COCCCNC(=O)c1ccc(C2SCC(=O)N2Cc2ccco2)cc1 (centres undefined)	-11	i	nt	-12	1	5	-3	1

Continuation.
SMILES	CSC inhib	Rce1 inhib	UUG fidelity	HIV Env fusion	MT1-MMP act inh	MT1-MMP act inh RFP	PABP FP inh	eIF4H inh	others
Cc1ccc(CC2CC(=O)N(c3nc4ccccc4n3C)C2=O)cc1 (centres undefined)	-7	i	nt	nt	6	6	-6	-2
COc1ccc(-c2cc(NC=O)c3ncc(-c4cccc(C(F)(F)F)c4)n3c2)cc1OC	nt	nt	1	-2	-10	-7	nt	nt
FC(F)(F)c1cccc(NC(=S)NC2CCCC2)c1	nt	i	nt	7	4	-1	-7	1
CC(=O)c1c(C)[nH]c(C(=O)OCC(=O)Nc2ccc(Cl)c(S(=O)(=O)N(C)C)c2)c1C	2	nt	nt	79*	-6	-29	-5	1
COc1c(C(O)CC(C)C)ccc2c1C(=O)OCc1cc(C)cc(O)c1O2 (centres undefined)	-9	i	1	nt	1	-27	17	34
CC1=C(C(=O)Nc2ccc(CC(=O)NCc3ccccc3C)cc2)SCCO1	-3	i	-8	-15	-1	5	6	-3
Cc1nc2ccccc2n1CC(=O)NCCN1CCOCC1	-3	i	-17	-3	1	0	0	2
COCCN(C(=O)COC(=O)CCCc1c[nH]c2ccccc12)c1c(N)n(Cc2ccccc2)c(=O)[nH]c1=O	nt	nt	6	8	-3	1	nt	nt
CCCCn1c(SCc2nnc(-c3ccccc3)o2)nc2c1c(=O)n(C)c(=O)n2C	-4	nt	-18	?	2	-16	-12	-6
CC(=O)Nc1cccc(C(=O)Oc2cccc(C)c2)c1O	-3	i	-7	-22	1	2	-8	-2
CCOC(=O)CN1C2=NCCCN2c2ccccc21	-9	i	nt	-1	0	0	-1	-1
CC(C)(C)c1ccc(C2CC2C(=O)N/N=C\c2cc3ccccc3nc2Cl)cc1 (centres undefined)	2	i	-6	-7	2	0	5	0
CC(C)c1nc2sc3c(NCc4ccco4)ncnc3c2c2c1COC(C)(C)C2	61	i	nt	nt	-21	-16	8	1
COc1ccc(C(=O)Nc2ccc3ccccc3c2)cc1	40	i	-15	-195	2	-9	6	-7
NS(=O)(=O)c1ccc(N2N=C(c3ccccc3)CC2c2ccccc2)cc1 (centres undefined)	42	?	nt	-49	-3	0	-5	0
FC(F)(F)c1ccc(Cl)c(-n2c(-c3cc(-c4ccco4)[nH]n3)n[nH]c2=S)c1	-13	i	-16	22	3	0	33*	?	PABP FP inh retest=121*
CCOC(=O)N1CCC(NC(=O)c2cccs2)CC1	-6	i	nt	-9	nt	nt	-2	-8
CCCOc1ccc(C(=O)NC(=S)NNC(=O)c2c(-c3ccccc3)noc2C)cc1	31	i	-2	3	-7	-20	-4	11
CC1CCC2(CC1)NC(=O)N(CC(=O)Nc1sc3c(c1C(N)=O)CCC3)C2=O (centres undefined)	5	i	nt	-3	-13	3	3.7*	76*	eIF4H inh retest=96*;PABP FP inh retest=52*
CCCCn1cc(C(=O)c2cc(Br)ccc2O)cc(C#N)c1=O	11	i	-10	nt	-6	-24	1	-9
O=C(Nc1ccc(NC(=O)c2ccco2)cc1)c1cnccn1	-8	i	nt	nt	2	3	2	-3
O=C(O)c1cc(N/N=C/c2ccc(N3CCOCC3)s2)ccc1Cl	1	i	-5	nt	1	5	3	90	eIF4H inh retest=8;PABP FP inh retest=49
O=C(c1cn(-c2ccccc2)nc1-c1cccc([N+](=O)[O-])c1)N1CCCCC1	9	i	18	4	0	-9	1	3
CCOC(=O)c1c(NC(=S)N2CCN(C)CC2)sc(C)c1-c1ccccc1	29	i	6	5	0	2	-12	-11
COc1cccc(-n2c(=O)n(Cc3ccccc3)c(=O)c3[nH]cnc32)c1	9	i	nt	-23	2	0	-6	2
CC(C)NC(=O)NC(=O)CN1C(=O)NC(Cc2c[nH]c3ccccc23)C1=O (centres undefined)	6	i	-8	-4	0	3	31	-4
c1ccc(CN=C2Nc3ccccc3CS2)nc1	4	i	nt	-76	-1	1	3	-7
CC1CC1C(=O)Nc1nc(-c2cccs2)c(-c2cccs2)s1 (centres undefined)	18	i	nt	16	-15	-9	6	11
Cc1ccc2c(CN3CCN(S(=O)(=O)/C=C/c4ccccc4)CC3)cc(=O)oc2c1	nt	i	nt	22	1	-4	-5	1

Compounds as they come; overall some 3% were active at least once.
